LANA-H2A inh = blocks KSHV LANA binding to histone H2A/H2B; 320,000 compounds, 0.6% hits; inhibition, % (no concentration beside the values); cell-free LANA-H2A/H2B peptide, fluorescence polarization; Q9QR71; in the data active means inhibition mostly above about 10%, no sharp cut-off; inactive means mostly below about 6.7%;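 further: stock transfer was 7.5 nL into about 10 µL; 0% = median of vehicle wells and 100% = median of positive control wells; one replicate is shown; the record names a cut of 25% in any replicate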
Calb FLC = C. albicans growth modulation with fluconazole | 300,000 compounds, 0.57% hits | C. albicans CaCi-2 (fluconazole-resistant clinical isolate) + fluconazole, Alamar Blue growth, 48 h | growth inhibition, % (concentration not given with the values);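 active means most replicates above 75%; inconclusive means exactly half above 75%; inactive means most below 75%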;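 further: all wells also contain fluconazole at 8 µg/ml as a sub-toxic cotreatment; 0% = median of DMSO wells and 100% = median of geldanamycin control wells; wells of about 8 µL received 7.5 nL stock; the first replicate is given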
RanGTP-Impb inh = disruptors of Ran-importin-beta complex formation – biochemical, FRET, CFP-Ran, YFP-importin-beta, homogeneous, primary screen | AID 2216 | inhibition, % (test concentration not listed) | cell-free CFP-Ran/YFP-importin-beta FRET ratio | 300,000 compounds, 1.1% hits;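 active means most replicates above 15%; inconclusive means exactly half above 15%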;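 further: 0% = DMSO wells and 100% = Ran loaded with GDP instead of GTP; wells of about 40 µL received 100 nL stock; the first replicate is given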
ALR inh = blocks human ALR sulfhydryl oxidase activity; P55789; purified ALR, DTT oxidation, H2O2 HRP-luminol luminescence; inhibition, % (concentration not given with the values); 290,000 compounds, 3.8% hits; AID 485317;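 active means mean and each replicate at 75% or more; inconclusive means only one of the two met; inactive means neither met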;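 further: stock transfer was 7.5 nL into about 7.5 µL; 0% = neutral wells and 100% = wells with inactivated enzyme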
Target sequence (P55789 whole entry, looked up): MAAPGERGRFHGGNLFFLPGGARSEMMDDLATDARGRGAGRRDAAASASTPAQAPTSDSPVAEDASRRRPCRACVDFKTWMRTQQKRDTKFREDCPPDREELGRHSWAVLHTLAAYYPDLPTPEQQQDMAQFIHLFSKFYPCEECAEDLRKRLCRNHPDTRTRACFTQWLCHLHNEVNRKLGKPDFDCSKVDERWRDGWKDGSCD
B2AR ag = activates human beta-2 adrenergic receptor causing internalization. P07550. Am2.2-beta2AR cells, FAP receptor internalization, flow cytometry; reference of the scale not given here. response, % (no concentration beside the values). 340,000 compounds, 0.43% hits. AID 504454;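 active means response above a set limit, near 3 SD of response in nonfluorescent compounds, cut at about 42% in these data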;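 further: stock transfer was 100 nL into about 11 µL; a reference agonist was the positive control; negative values mostly stem from fluorescent compounds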
Target sequence (P07550 whole entry, looked up): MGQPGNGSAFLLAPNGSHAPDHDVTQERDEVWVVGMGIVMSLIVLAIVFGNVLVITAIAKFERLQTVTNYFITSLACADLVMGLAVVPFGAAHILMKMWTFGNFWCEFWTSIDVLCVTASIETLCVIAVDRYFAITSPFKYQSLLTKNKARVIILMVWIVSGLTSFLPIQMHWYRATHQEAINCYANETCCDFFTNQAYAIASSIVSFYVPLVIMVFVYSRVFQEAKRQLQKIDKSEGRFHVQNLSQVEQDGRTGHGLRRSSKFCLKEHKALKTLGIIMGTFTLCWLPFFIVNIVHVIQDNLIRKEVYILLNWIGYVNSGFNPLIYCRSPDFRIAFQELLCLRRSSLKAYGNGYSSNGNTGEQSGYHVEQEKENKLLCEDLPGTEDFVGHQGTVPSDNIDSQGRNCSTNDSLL
HNF4A DNA FP = change in binding of human HNF4 alpha to DNA; P41235; HNF4a-FITC DNA binding, fluorescence polarization, 1 h; activity change, % at 10 µM; 360,000 compounds, 0.3% hits; AID 1224865; in the data active means activity change above about 30%, passing the limit was not always enough;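 further: controls were the assay level and a saturating level of protein; the project sought stronger binding though the title names inhibitors; some compounds called inactive have numbers as strong as hits; positive values seem to mean higher polarization but the record does not say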
Target sequence (P41235 whole entry, looked up): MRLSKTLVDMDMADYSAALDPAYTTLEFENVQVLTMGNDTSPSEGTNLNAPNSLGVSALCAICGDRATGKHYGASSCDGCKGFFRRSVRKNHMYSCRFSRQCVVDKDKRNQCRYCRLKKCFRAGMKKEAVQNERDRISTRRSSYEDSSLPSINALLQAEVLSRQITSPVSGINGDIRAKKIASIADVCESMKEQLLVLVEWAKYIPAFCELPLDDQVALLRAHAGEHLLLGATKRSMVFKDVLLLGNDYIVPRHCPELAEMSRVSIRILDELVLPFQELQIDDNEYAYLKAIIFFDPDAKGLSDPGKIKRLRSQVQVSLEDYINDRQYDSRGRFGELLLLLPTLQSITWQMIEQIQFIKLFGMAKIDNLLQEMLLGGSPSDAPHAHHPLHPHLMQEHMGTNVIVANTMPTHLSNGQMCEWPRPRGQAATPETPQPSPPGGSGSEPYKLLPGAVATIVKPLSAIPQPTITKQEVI
Vif TR-FRET = HIV-1 Vif–A3G interaction blockers – biochemical, TR-FRET, GST-Vif 1-94, biotin-A3G peptide, dose response retest, primary screen (AID 1117319). TR-FRET GST-Vif / biotin-A3G peptide binding; higher % means a stronger effect; test concentration not given here; strong numbers were not always called active. inhibition, %, or IC50 in µM where a hit was titrated. 260,000 compounds, 0.57% hits;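 active means above the screen mean plus three standard deviations and confirmed in dose response; inconclusive means results disagree or hit not tested in dose response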;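 further: Vif residues 1-94 fused to GST binding biotinylated APOBEC3G peptide 110-148; 0% = full assay without inhibitor and 100% = GST in place of GST-Vif; retest series ran down from 100 µM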
* hit, by the source's call; i = inactive; ? = inconclusive; / = not tested or not shown; & = joins results of further samples.

Values in the order: LANA-H2A inh | Calb FLC | RanGTP-Impb inh | ALR inh | B2AR ag | HNF4A DNA FP | Vif TR-FRET
Cc1ccc(N(C)C(=O)N2CCN(S(=O)(=O)c3ccc4ccccc4c3)CC2)cc1
    -1.0 | -13 | 6.6 | -3 | -4 | 1.4 | -5%
CCN(CC)c1ccc(C(=O)NNC(=O)C2CSC3(C)CCC(=O)N23)cc1 (stereo not given)
    -3.5 | / | / | 17 | -5 | 1.1 | -7%
COc1ccc(C)c2sc(NC(=O)CCS(=O)(=O)c3ccccc3)nc12
    103* | ? | 2.4 | 5 | 11 | 5.4 | 3%
CCC(=O)Nc1cccc(-c2nnc(SCC(=O)c3ccccc3)n2C)c1
    -4.1 | -7 | 1.7 | 68 | 4 | -1.2 | 16%
O=C(O)CC1(CC(=O)Nc2ccc3c(c2)C(=O)OC3)CCCCC1
    1.2 | 0 | 3.7 | -16 | -2 | -3.5 | -5%
CCOc1cc(N2CCOCC2)c(OCC)cc1NC(=O)COC(=O)CCOc1ccc(C(C)(C)C)cc1
    5.4 | 0 | 3.1 | -21 | 3 | -0.9 | 5%
CN(Cc1ccccc1)C(=O)c1ccc(NC(=O)c2ccccc2)cc1
    2.0 | -1 | 3.4 | -13 | -5 | 0.7 | 1%
O=C1CSC(c2ccncc2)N1Cc1ccccc1 (stereo not given)
    -2.2 | -1 | 1.1 | 49 | -8 | 1.6 | 12%
O=C(O)CCCC(=O)Nc1cccc(-c2nc3ccccc3[nH]2)c1
    -1.6 | -1 | 6.2 | 14 | -8 | -0.1 | 0%
CC(=O)N1CCN(S(=O)(=O)c2ccc(Cl)cc2F)CC1
    i | ? | -0.2 | -2 | -7 | 1.9 | -2%

Next section
Values in the order: LANA-H2A inh | Calb FLC | RanGTP-Impb inh | ALR inh | B2AR ag | HNF4A DNA FP | Vif TR-FRET
COc1cc(/C=N/NC(=O)c2cc[n+]([O-])cc2)cc(OC)c1OC
    2.6 | 9 | 1.2 | -22 | 0 | 2.4 | 0%
Cc1oc(=O)c(NC(=O)c2ccccc2)cc1C(C)O (stereo not given)
    -1.0 | 33 | 4.9 | 0 | -12 | -1.6 | -2%
O=c1c2c(-c3ccccc3)csc2ncn1/N=C/c1c2ccccc2cc2ccccc12
    -4.0 | 13 | -64 | -4 | 12 | -21 | ?
Cc1ccccc1CC(=O)Nc1ccc2c(c1)CCC2
    -4.2 | 16 | 1.7 | -3 | 6 | 1.6 | /
Cc1ccc(-c2nnc(SCC(=O)n3c4c(c5ccccc53)CCCC4)o2)cc1
    -0.6 | -3 | -4.4 | -6 | / | / | -4%
CC(=O)C1=C(O)C(=O)N(Cc2cccnc2)C1c1ccccc1Cl (stereo not given)
    0.8 | -5 | -1.2 | -8 | -2 | -6.1 | -5%
Cc1ccc(C)c(C(=O)CSc2n[nH]c(-c3ccncc3)n2)c1
    5.7 | 5 | -5.0 | 49 | -3 | -2.8 | 11%
CC(=O)c1sc(NC(=O)c2ccc(COc3ccccc3Cl)o2)nc1C
    -2.7 | -2 | -0.3 | 2 | -2 | 1.3 | -12%
O=C(CC1C(=O)NCCN1C(=O)Nc1ccc(C(F)(F)F)cc1)Nc1ccc(F)cc1 (stereo not given)
    -2.2 | 31 | 2.8 | / | 0 | 0.5 | 8%
O=C(NCc1nnc(SCc2ccc(F)cc2)n1-c1ccccc1)C12CC3CC(CC(C3)C1)C2
    -4.6 | -9 | ? | -40 | -9 | 0.0 | /

Carrying on.
Values in the order: LANA-H2A inh | Calb FLC | RanGTP-Impb inh | ALR inh | B2AR ag | HNF4A DNA FP | Vif TR-FRET
CC(C)c1cc(-c2cc(-c3ccc(Cl)cc3)on2)nc(NCC2CC2)n1
    0.0 | -5 | -4.2 | -1 | -1 | -3.8 | -3%
Cc1cccc(NC(=O)C2CCCCN2S(=O)(=O)c2ccccc2)c1C (stereo not given)
    -0.7 | / | / | -3 | -5 | 0.5 | /
CCOC(=O)N1CCN(S(=O)(=O)c2cccc3ccc(C)nc23)CC1
    3.4 | -1 | 0.7 | -22 | -2 | 5.3 | -3%
COc1cccc(NCc2nnc(SCC(=O)N(C)C3CCS(=O)(=O)C3)n2C2CCCCC2)c1 (stereo not given)
    -3.2 | -2 | 0.4 | 17 | -2 | 1.8 | -10%
Cc1cccc(N(Cc2ccccc2)C(=O)CN2C(=O)NC3(CCCCC3C)C2=O)c1 (stereo not given)
    -3.1 | / | / | 2 | 2 | 1.8 | -2%
CSCCC(NC(=O)c1ccccc1Cl)C(=O)N1CC(C)OC(C)C1 (stereo not given)
    -2.0 | / | / | 1 | 2 | -3.4 | 1%
C/C(Cc1nnn(-c2cc(C)on2)n1)=N\O
    4.2 | 3 | 0.8 | -2 | 5 | -2.4 | -3%
CN1CCN(C(=O)c2cccn(Cc3cccc(Cl)c3)c2=O)CC1
    0.6 | 11 | ? | -4 | -2 | 2.0 | 2%
CCOC(=O)c1c(C)[nH]c(C(=O)N2CCC(C(=O)OCC)CC2)c1C
    -42 | -8 | 4.1 | 3 | 12 | -2.3 | 0%
O=S(=O)(NCC(c1ccco1)N1CCCCC1)c1cccc(C(F)(F)F)c1 (stereo not given)
    1.9 | / | / | 1 | 5 | 2.0 | 2%

(cont.)
Values in the order: LANA-H2A inh | Calb FLC | RanGTP-Impb inh | ALR inh | B2AR ag | HNF4A DNA FP | Vif TR-FRET
CC[C@H](C)[C@H](NC(N)=O)C(=O)OCC(=O)NCc1ccc(Cl)cc1
    -0.1 | 6 | 4.7 | -3 | 5 | 2.3 | -7%
C=CC[C@H](CC(=O)N(CCO)Cc1ccccc1)C(=O)N[C@H](COC(=O)[C@@H](CC=C)Cc1ccc(F)cc1)C(C)(C)C
    1.0 | / | / | 2 | 0 | -3.3 | /
Nc1ccc2c(c1Br)Cc1ccccc1-2
    / | / | / | / | 4 | 0.8 | 4%
Cc1ccc(S(=O)(=O)c2ccc(Oc3ccccc3)cc2)cc1
    -3.5 | -3 | 1.0 | -9 | -8 | -0.3 | 0%
COc1cc(/C=C(/C#N)c2nc3ccccc3[nH]2)ccc1OCC(=O)Nc1ccccc1C(C)C
    0.1 | 10 | -14 | -4 | -13 | 0.8 | -6%&17%
Cc1ccc(C)c(NC2=C(Cl)C(=O)OC2OC(C)C)c1 (stereo not given)
    -0.1 | 0 | -2.4 | 0 | 3 | -0.5 | -6%
Cc1ccc(CCC(=O)Nc2ccc(S(N)(=O)=O)cc2)o1
    7.2 | 18 | -3.6 | 0 | 3 | 1.4 | 57µM*
O=c1ccc(N=Nc2ccccc2)ccc1O
    0.6 | 101* | -1.3 | 98* | 10 | -3.3 | 6%
O=C(Cc1ccc(Cl)cc1)NNC(=O)c1ccco1
    3.3 | 1 | 2.3 | 9 | 8 | -2.4 | /
CC(O)/C=C/c1cccc[n+]1C (stereo not given)
    2.1 | / | / | -6 | 3 | -1.3 | -2%

More records.
Values in the order: LANA-H2A inh | Calb FLC | RanGTP-Impb inh | ALR inh | B2AR ag | HNF4A DNA FP | Vif TR-FRET
COc1ccc(C2CC(=O)C=C(NCc3ccc4c(c3)OCO4)C2)cc1 (stereo not given)
    0.9 | -11 | 0.7 | -3 | -1 | 3.5 | -4%
COc1ccccc1C(=O)Nc1ccc2c(c1)CCCN2C(=O)c1cccs1
    -2.7 | 18 | 1.8 | 6 | -9 | 2.2 | /
Cc1ccc(-c2nn3c(C)nnc3c3ccccc23)cc1S(=O)(=O)NCc1ccco1
    15 | 2 | 4.5 | -2 | 5 | -2.0 | -15%
COc1ccccc1N1CCN(C(=O)COc2cc(C)cc3oc(=O)cc(C)c23)CC1
    -5.5 | -4 | 8.9 | -21 | 11 | 0.7 | /
COc1ccc(CNC(=O)c2ccccc2SC)cc1
    3.3 | 1 | 3.6 | -6 | 3 | -2.7 | 31%
COC(CNC(=O)CNC(=S)N(Cc1ccccc1)Cc1cccnc1)OC
    4.2 | 11 | -0.9 | -5 | -1 | -4.9 | -2%
COc1cc(NC(=O)C2CC(c3c(F)cccc3Cl)=NO2)cc(OC)c1OC (stereo not given)
    4.3 | 21 | -1.0 | -1 | 2 | 1.2 | -8%
Cc1cccc(C)c1Nc1c(-c2ccc(N3CCOCC3)cc2)nc2cnccn12
    -4.5 | 1 | 12 | 99* | 4 | 2.6 | 17%
COC(=O)c1ccccc1NC(=O)c1ccc2nccnc2c1
    4.2 | 33 | -2.8 | -1 | 6 | -17 | 14%
COc1ccc(CN(C)CC2CCCN(CCc3ccccc3C)C2)cc1O (stereo not given)
    2.0 | 0 | 4.8 | 7 | 11 | -1.4 | 0%

(listing goes on)
Values in the order: LANA-H2A inh | Calb FLC | RanGTP-Impb inh | ALR inh | B2AR ag | HNF4A DNA FP | Vif TR-FRET
O=C(O)CNC(=O)CCN1C(=O)c2ccccc2C1=O
    -1.6 | -4 | 3.6 | 1 | 6 | -1.6 | ?
O=C(Nc1cccnc1)Nc1ccc(Br)cc1Cl
    5.7 | ? | -5.0 | 0 | 6 | 0.5 | -5%
CN(c1ccccc1)S(=O)(=O)c1ccc(Cl)c(C(=O)OCC(=O)NCc2ccco2)c1
    -3.8 | 0 | 3.5 | -2 | -13 | -7.6 | 29%
O=C(CN1CCN(c2nc(-c3ccccc3)cs2)CC1)NNC(=O)c1ccco1
    2.7 | -7 | 1.0 | 5 | 12 | -2.0 | 4%
COc1ccc(C2C3=C(CCCC3=O)N(CC(=O)O)C3=C2C(=O)CCC3)cc1Cl
    -4.0 | 3 | 112* | -13 | 0 | 0.1 | 20%
COc1cc(C(=O)NCCC2=CCCCC2)ccc1OC1CCN(C(C)=O)CC1
    -4.6 | 10 | 3.7 | 3 | -2 | -2.8 | /
COc1ccc(-c2oc3ccc(-c4cc(OC)c(OC)c(OC)c4)cc3c2C#Cc2ccsc2)cc1
    -5.5 | -7 | ? | -4 | -2 | 4.1 | /
O=C(C1CCC(CNc2c(N3CCCCC3)c(=O)c2=O)CC1)N1CCN(C2CCCCC2)CC1 (stereo not given)
    -2.3 | -5 | 5.0 | -6 | -6 | 2.2 | 72%
CCC(C)N1CC(C(=O)NC2CCCCC2)CC1=O (stereo not given)
    4.9 | -1 | -2.3 | -4 | 2 | -1.8 | -2%
COc1cccc(-n2cc(C(=O)NC(C)C)c3ccccc3c2=O)c1
    2.6 | -2 | 1.1 | / | 0 | 0.1 | -3%

Other entries.
Values in the order: LANA-H2A inh | Calb FLC | RanGTP-Impb inh | ALR inh | B2AR ag | HNF4A DNA FP | Vif TR-FRET
COCCNc1nc(N)c([N+](=O)[O-])c(NCc2ccccc2)n1
    0.1 | -3 | -1.3 | -12 | -6 | -1.7 | /
CCCN1CCN(C(=O)Nc2ccc(C(=O)OCC)cc2)CC1
    -3.9 | 19 | 2.1 | -1 | -5 | -0.6 | -3%
O=C(CNC(=O)c1ccccc1F)OC(C(=O)Nc1cc(C(F)(F)F)ccc1Cl)c1ccccc1 (stereo not given)
    -3.0 | -24 | 6.9 | -9 | -5 | -4.0 | ?
CC1(C)Oc2cc(N)c([N+](=O)[O-])cc2O1
    -3.2 | 2 | -4.6 | 0 | -8 | -3.1 | 23%
CCn1c(-c2ccccc2Cl)nn(CC(=O)Nc2ccccc2OC)c1=S
    2.5 | -1 | 2.1 | 2 | 9 | -0.2 | 0%
CCOC(=O)c1sc(NC(=O)OC)c(C(=O)OC)c1C
    2.0 | -3 | 4.5 | 8 | 0 | 3.2 | 14%
CC(=O)c1ccc(NC(=O)C2CCCNC2=O)cc1 (stereo not given)
    -1.6 | -3 | -0.3 | -8 | -2 | -11 | -1%
CCCOc1ccc(CNC(=O)Cn2ncc3ccccc32)cc1
    4.8 | 1 | 4.2 | -4 | -6 | -2.7 | 1%
COc1ccc(NC(=S)NCCCN2CCN(C3CCCCC3)CC2)cc1
    3.1 | 7 | 1.2 | 1 | -4 | 3.4 | ?
COc1ccc(Br)cc1/C=N/NC(=O)c1ccco1
    -0.7 | 38 | 1.5 | -3 | 3 | -0.3 | /

High-throughput results as filed in PubChem.
